HIV Env fusion = inhibitors of HIV-1 Env-driven cell-cell fusion, primary screen, HeLa-JRFL effector, CEM21 target cells, luciferase; AID 651610, 2012; inhibition, % at 12.3 µM; hit rate 1.1% among 360,000;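 active = mean replicate inhibition score of at least 50 and every replicate individually at or above 50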;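 note: 0% = plate neutral controls and 100% = maraviroc near 300 nM; one replicate is shown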
UUG fidelity = modulators of yeast start codon fidelity, primary screen, whole organism, S. cerevisiae, single point, plate reader; S. cerevisiae UUG-firefly luciferase reporter, luminescence/redox ratio; activity score, % at 18.7 µM; hit rate 0.13% among 350,000; AID 602363, 2012;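 active = replicate mean at a twofold rise or more, about +100% in these data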;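 note: firefly luciferase made from a UUG start codon reports start codon fidelity; reporter light over untreated wells divided by growth signal over untreated wells; some hits fall short of that in this replicate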
* marks the source's active call; other numbers are inactive results; [ ] = another dose, or the depositor's remark.

COc1ccc(-c2cnc3c(c2)C(=O)N([C@H](C)CO)C[C@@H](C)[C@H](CN(C)Cc2ccc(C(=O)O)cc2)O3)cc1 was read as HIV Env fusion -11.1[16.7 µM] and UUG fidelity 4.3.
For C[C@@H]1CN([C@H](C)CO)C(=O)Cc2cc(NS(=O)(=O)c3cn(C)cn3)ccc2O[C@@H]1CN(C)S(=O)(=O)c1cccs1 the results were HIV Env fusion 3.9[16.7 µM] and UUG fidelity 0.3.
For C[C@H](CO)N1C[C@H](C)[C@H](CN(C)Cc2cccnc2)Oc2cc(-c3cccnc3)ccc2S1(=O)=O the results were HIV Env fusion 13.6[16.7 µM] and UUG fidelity -17.4.
`Cc1ccc(S(=O)(=O)Nc2ccc3c(c2)C(=O)N([C@H](C)CO)C[C@H](C)[C@H](CN(C)C(=O)CCC(F)(F)F)OCCCC[C@H](C)O3)cc1` gave HIV Env fusion -98.9[16.7 µM] and UUG fidelity -8.4.
`Cc1ccc(S(=O)(=O)N[C@H]2CC[C@H](CC(=O)NC3CCCCC3)O[C@@H]2CO)cc1` gave HIV Env fusion 7.9[16.7 µM] and UUG fidelity 12.0.
Screening C[C@H](CO)N1C[C@H](C)[C@H](CN(C)S(=O)(=O)c2ccccc2)OCCCC[C@H](C)Oc2ccc(NC(=O)Nc3ccc(F)cc3)cc2C1=O returned HIV Env fusion 0.6[16.7 µM] and UUG fidelity -2.5.
C[C@@H]1CCCCO[C@H](CN(C)Cc2ccc3c(c2)OCO3)[C@@H](C)CN([C@H](C)CO)C(=O)c2cc(NC(=O)NC3CCCCC3)ccc2O1 was read as HIV Env fusion 6.3[16.7 µM] and UUG fidelity -22.2.
Screening COC(=O)CCCCCCC(=O)NOCc1ccccc1 returned HIV Env fusion 8.4[16.7 µM] and UUG fidelity 15.5.
Screening COc1ccc(-c2cn(CC[C@H]3CC[C@H](NC(=O)NC(C)C)[C@@H](CO)O3)nn2)cc1 returned HIV Env fusion 4.0[16.7 µM] and UUG fidelity -8.3.
For COCC(=O)N(C)C[C@@H]1Oc2ncc(/C=C/c3ccccc3)cc2C(=O)N([C@@H](C)CO)C[C@H]1C the results were HIV Env fusion 1.0[16.7 µM] and UUG fidelity 6.6.
For O=C(Nc1ccccc1)N[C@@H]1CC[C@H](CCNC(=O)c2ccccc2F)O[C@@H]1CO the results were HIV Env fusion -5.2[16.7 µM] and UUG fidelity -1.1.
For C[C@@H]1CN([C@@H](C)CO)C(=O)c2cc(NC(=O)Nc3ccc(C(F)(F)F)cc3)ccc2O[C@@H]1CN(C)C(=O)Nc1ccc(F)cc1 the results were HIV Env fusion 22.8[16.7 µM] and UUG fidelity -8.6.
`CCC(=O)Nc1ccc2c(c1)C(=O)N(C)C[C@H](OC)[C@H](C)CN(Cc1ccccc1)[C@H](C)CO2` gave HIV Env fusion -7.3[16.7 µM] and UUG fidelity -9.6.
`C[C@H](CO)N1C[C@H](C)[C@@H](CN(C)Cc2ccc(Oc3ccccc3)cc2)Oc2ccc(NC(=O)CCN3CCOCC3)cc2CC1=O` gave HIV Env fusion 13.8[16.7 µM] and UUG fidelity 8.0.
Cc1noc(C)c1S(=O)(=O)Nc1ccc2c(c1)C(=O)N([C@@H](C)CO)C[C@@H](C)[C@@H](CN(C)C(=O)Nc1cccc3ccccc13)OCCCC[C@@H](C)O2 was read as HIV Env fusion -51.4[16.7 µM] and UUG fidelity 9.7.
`C[C@@H]1CN([C@H](C)CO)C(=O)c2cc(C#CCN(C)C)cnc2O[C@@H]1CN(C)Cc1ccc(-c2ccccc2)cc1` gave HIV Env fusion 3.8[16.7 µM] and UUG fidelity -5.1.
Screening CNC[C@H]1Oc2c(NC(=O)c3ccc(-c4nccs4)cc3)cccc2C(=O)N([C@H](C)CO)C[C@@H]1C returned HIV Env fusion -7.6[16.7 µM] and UUG fidelity -0.1.
`COc1ccccc1-c1cnc2c(c1)C(=O)N([C@@H](C)CO)C[C@H](C)[C@@H](CN(C)Cc1cncnc1)O2` gave HIV Env fusion -11.5[16.7 µM] and UUG fidelity 14.4.
C[C@H](CO)N1C[C@H](C)[C@@H](CN(C)Cc2ccc(C(=O)O)cc2)Oc2ccc(NC(=O)Nc3ccc(F)cc3)cc2CC1=O was read as HIV Env fusion 2.2[16.7 µM] and UUG fidelity 0.4.
Cc1ccc(S(=O)(=O)N[C@H]2C=C[C@H](CC(=O)N3CCc4ccccc4C3)O[C@@H]2CO)cc1 was read as HIV Env fusion -0.5[16.7 µM] and UUG fidelity 2.2.
`COc1ccccc1NC(=O)N(C)C[C@@H]1Oc2cc(Br)ccc2S(=O)(=O)N([C@@H](C)CO)C[C@H]1C` gave HIV Env fusion -10.6[16.7 µM] and UUG fidelity 109.4*.
`CO[C@H]1CN(C)C(=O)c2ccc(NC(=O)c3ccccc3F)cc2OC[C@@H](C)N(CC2CC2)C[C@H]1C` gave HIV Env fusion -40.1[16.7 µM] and UUG fidelity 3.8.
`CNC[C@H]1OCCCC[C@H](C)Oc2ccc(NS(=O)(=O)c3ccc(OC)cc3)cc2C(=O)N([C@@H](C)CO)C[C@H]1C` gave HIV Env fusion 12.5[16.7 µM] and UUG fidelity 17.6.
`C[C@@H]1CN([C@H](C)CO)C(=O)Cc2cc(NS(=O)(=O)c3ccccc3)ccc2O[C@@H]1CN(C)C(=O)Nc1ccccc1` gave HIV Env fusion 1.1[16.7 µM] and UUG fidelity -0.4.
`O=C(CN1CCOCC1)N[C@@H]1CC[C@@H](CCNS(=O)(=O)c2ccccc2F)O[C@H]1CO` gave HIV Env fusion 0.8[16.7 µM] and UUG fidelity -5.1.
Screening CC(C)NC(=O)N(C)C[C@H]1Oc2ncc(C#CCC3CCCC3)cc2C(=O)N([C@@H](C)CO)C[C@H]1C returned HIV Env fusion 12.3[16.7 µM] and UUG fidelity 14.8.
`COc1ccc(NC(=O)N2C[C@@H](O)COC[C@H]3O[C@@H](CC(=O)N4CCCCC4)CC[C@@H]32)cc1` gave HIV Env fusion 6.3[16.7 µM] and UUG fidelity 1.6.
For C[C@H]1CN([C@@H](C)CO)C(=O)Cc2cc(NC(=O)Nc3ccc(C(F)(F)F)cc3)ccc2O[C@H]1CN(C)Cc1ccc(C(=O)Nc2ccccc2N)cc1 the results were HIV Env fusion 28.5[16.7 µM] and UUG fidelity -6.9.
Screening C[C@H](CO)N1C[C@H](C)[C@H](CN(C)C)OCCCC[C@H](C)Oc2ccc(NC(=O)c3ccncc3)cc2C1=O returned HIV Env fusion 9.5[16.7 µM] and UUG fidelity 48.8.
O=C(CN1CCOCC1)NCC[C@@H]1CC[C@@H](NC(=O)c2ccc3c(c2)OCO3)[C@H](CO)O1 was read as HIV Env fusion 6.8[16.7 µM] and UUG fidelity -13.3.
For C[C@H]1CN([C@@H](C)CO)S(=O)(=O)c2ccc(-c3ccc(C#N)cc3)cc2O[C@H]1CN(C)CC1CC1 the results were HIV Env fusion 15.3[16.7 µM] and UUG fidelity 2.8.
Screening COCC(=O)Nc1ccc2c(c1)C(=O)N(C)[C@@H]1CC[C@@H](CC(=O)Nc3ccccc3)O[C@H]1CO2 returned HIV Env fusion -2.8[16.7 µM] and UUG fidelity -2.7.
For C[C@@H]1CCCCO[C@@H](CN(C)CC2CC2)[C@@H](C)CN([C@H](C)CO)C(=O)c2cc(NC(=O)Nc3ccc(F)cc3)ccc2O1 the results were HIV Env fusion -14.9[16.7 µM] and UUG fidelity -0.4.
Screening CCCNC(=O)N(C)C[C@H]1Oc2ncc(C#CC3(O)CCCC3)cc2C(=O)N([C@H](C)CO)C[C@@H]1C returned HIV Env fusion -37.1[16.7 µM] and UUG fidelity -10.8.
Screening C[C@@H]1CN([C@H](C)CO)C(=O)c2cc(NC(=O)Cc3ccccc3)ccc2O[C@H]1CN(C)S(C)(=O)=O returned HIV Env fusion -0.5[16.7 µM] and UUG fidelity 0.6.
`C[C@@H]1CCCCO[C@@H](CN(C)C(=O)C2CCCCC2)[C@@H](C)CN([C@@H](C)CO)C(=O)c2cc(NC(=O)c3ccncc3)ccc2O1` gave HIV Env fusion -14.2[16.7 µM] and UUG fidelity 4.6.
For O=C(Cc1ccncc1)NCC[C@@H]1CC[C@@H](NS(=O)(=O)c2ccccc2Cl)[C@H](CO)O1 the results were HIV Env fusion 13.6[16.7 µM] and UUG fidelity -7.8.
For C[C@@H]1CN([C@H](C)CO)C(=O)c2cc(/C=C/c3ccccc3)cnc2O[C@H]1CN(C)C(=O)c1cnccn1 the results were HIV Env fusion 2.1[16.7 µM] and UUG fidelity 17.9.
For Cc1noc(C)c1S(=O)(=O)N(C)C[C@@H]1OCCCC[C@@H](C)Oc2ccc(NC(=O)c3ccccc3)cc2C(=O)N([C@H](C)CO)C[C@H]1C the results were HIV Env fusion -129.0[16.7 µM] and UUG fidelity -5.5.
CCCC#Cc1cnc2c(c1)C(=O)N([C@H](C)CO)C[C@H](C)[C@@H](CN(C)C(=O)Nc1ccc(OC)cc1)O2 was read as HIV Env fusion 7.4[16.7 µM] and UUG fidelity 17.6.

7 compounds picked at random from those above, as already listed:
`CCC(=O)Nc1ccc2c(c1)C(=O)N(C)C[C@H](OC)[C@H](C)CN(Cc1ccccc1)[C@H](C)CO2` gave HIV Env fusion -7.3[16.7 µM] and UUG fidelity -9.6.
Screening C[C@@H]1CN([C@H](C)CO)C(=O)c2cc(NC(=O)Cc3ccccc3)ccc2O[C@H]1CN(C)S(C)(=O)=O returned HIV Env fusion -0.5[16.7 µM] and UUG fidelity 0.6.
For C[C@H]1CN([C@@H](C)CO)S(=O)(=O)c2ccc(-c3ccc(C#N)cc3)cc2O[C@H]1CN(C)CC1CC1 the results were HIV Env fusion 15.3[16.7 µM] and UUG fidelity 2.8.
O=C(CN1CCOCC1)NCC[C@@H]1CC[C@@H](NC(=O)c2ccc3c(c2)OCO3)[C@H](CO)O1 was read as HIV Env fusion 6.8[16.7 µM] and UUG fidelity -13.3.
Screening C[C@H](CO)N1C[C@H](C)[C@H](CN(C)S(=O)(=O)c2ccccc2)OCCCC[C@H](C)Oc2ccc(NC(=O)Nc3ccc(F)cc3)cc2C1=O returned HIV Env fusion 0.6[16.7 µM] and UUG fidelity -2.5.
`COc1ccccc1-c1cnc2c(c1)C(=O)N([C@@H](C)CO)C[C@H](C)[C@@H](CN(C)Cc1cncnc1)O2` gave HIV Env fusion -11.5[16.7 µM] and UUG fidelity 14.4.
For C[C@H](CO)N1C[C@H](C)[C@H](CN(C)Cc2cccnc2)Oc2cc(-c3cccnc3)ccc2S1(=O)=O the results were HIV Env fusion 13.6[16.7 µM] and UUG fidelity -17.4.

Later entries
`CC(C)C#Cc1cnc2c(c1)C(=O)N([C@H](C)CO)C[C@@H](C)[C@H](CN(C)Cc1cccc(F)c1)O2` gave HIV Env fusion 1.6[16.7 µM] and UUG fidelity 5.4.
Screening C[C@H]1CN([C@@H](C)CO)C(=O)c2cc(C#CCc3ccccc3)cnc2O[C@@H]1CN(C)CC1CCOCC1 returned HIV Env fusion 7.7[16.7 µM] and UUG fidelity 6.0.
Screening CCCC#Cc1ccc([C@H]2[C@@H](C#N)N(C(=O)CN3CCOCC3)[C@H]2CO)cc1 returned HIV Env fusion 8.6[16.7 µM] and UUG fidelity -5.3.
Screening COCC(=O)Nc1ccc2c(c1)[C@@H]1C[C@H](CC(=O)N(C)C)O[C@@H](CO)[C@@H]1O2 returned HIV Env fusion 11.8[16.7 µM] and UUG fidelity -13.8.
C[C@H](CO)N1C[C@H](C)[C@@H](CN(C)Cc2ccc(C(=O)O)cc2)OCCCC[C@H](C)Oc2ccc(NC(=O)Cc3ccccc3)cc2C1=O was read as HIV Env fusion 4.2[16.7 µM] and UUG fidelity 9.5.
`C[C@@H]1CN([C@H](C)CO)S(=O)(=O)c2ccc(-c3cccc(C(=O)N(C)C)c3)cc2O[C@@H]1CN(C)C(=O)Nc1ccc(F)cc1` gave HIV Env fusion -56.1[16.7 µM] and UUG fidelity 5.1.
`C[C@@H]1CCCCO[C@@H](CN(C)S(=O)(=O)c2cn(C)cn2)[C@H](C)CN([C@H](C)CO)C(=O)c2cc(NC(=O)Cc3ccccc3)ccc2O1` gave HIV Env fusion -7.4[16.7 µM] and UUG fidelity 4.9.
For CN1CCN(C(=O)C[C@@H]2C=C[C@@H](NC(=O)Cc3ccccn3)[C@H](CO)O2)CC1 the results were HIV Env fusion -20.1[16.7 µM] and UUG fidelity -27.1.
Cc1ccc(S(=O)(=O)Nc2cccc3c2O[C@@H](CN(C)S(=O)(=O)c2cccs2)[C@@H](C)CN([C@H](C)CO)C3=O)cc1 was read as HIV Env fusion 5.1[16.7 µM] and UUG fidelity 2.3.
Screening CCC(=O)N[C@H]1C=C[C@H](CC(=O)NCCN2CCCCC2)O[C@@H]1CO returned HIV Env fusion 3.4[16.7 µM] and UUG fidelity -10.5.
`COCC(=O)Nc1ccc2c(c1)C(=O)N(C)C[C@@H](OC)[C@@H](C)CN(CCC(F)(F)F)[C@H](C)CO2` gave HIV Env fusion -20.8[16.7 µM] and UUG fidelity 1.1.
Screening Cc1ccc(S(=O)(=O)Nc2ccc3c(c2)C(=O)N([C@H](C)CO)C[C@H](C)[C@H](CN(C)S(=O)(=O)c2cn(C)cn2)OCCCC[C@H](C)O3)cc1 returned HIV Env fusion -1.2[16.7 µM] and UUG fidelity 10.5.
Screening CNC[C@H]1Oc2ncc(C#CC3CCCCC3)cc2C(=O)N([C@@H](C)CO)C[C@H]1C returned HIV Env fusion -7.2[16.7 µM] and UUG fidelity 9.7.
Screening C[C@@H]1CN([C@H](C)CO)C(=O)c2cc(-c3ccc(F)cc3)cnc2O[C@@H]1CN(C)Cc1cncnc1 returned HIV Env fusion -112.7[16.7 µM] and UUG fidelity -4.3.
C[C@H](CO)N1C[C@H](C)[C@H](CN(C)Cc2ccc3c(c2)OCO3)Oc2c(NC(=O)NC3CCCCC3)cccc2C1=O was read as HIV Env fusion -29.4[16.7 µM] and UUG fidelity -6.5.
Screening COc1cccc(S(=O)(=O)N[C@H]2C=C[C@@H](CC(=O)NCc3ccccc3)O[C@H]2CO)c1 returned HIV Env fusion -20.5[16.7 µM] and UUG fidelity -3.6.

From PubChem BioAssay

This is a subset; count on the stated rates, not on these rows.
